Screens as filed in PubChem.
MgrA DNA FP – S. aureus MgrA activity modulators, primary screen, biochemical, S. aureus Newman, fluorescence polarization. inhibition, %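 (about 10 µg/mL by stock and volumes)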. MgrA-DNA binding. AID 602314, 2012. hit rate 0.13% among 84,000;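 active = above 50% in either of two replicates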;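 note: 0% = protein plus DNA without compound and 100% = DNA alone without protein; higher means less MgrA bound to DNA so lower polarization; one replicate is shown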
Sa helicase inh – inhibitors of S. aureus replicative helicase, primary screen, biochemical, fluorescence unwinding readout. purified S. aureus helicase, fluorescence unwinding assay; about half of the hits fall short of the stated cut. inhibition, %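 (tested at about 80 µM)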. replicative DNA helicase (DnaC/DnaB), Staphylococcus aureus. hit rate 0.05% among 120,000;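 active = both duplicates at 50% or more, or one of them with a favoured structure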;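 note: 0% = mean of negative control wells and 100% = mean of positive control wells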
Active calls of the source: *; x = no result given; & = joins results of further samples. The list is partial; the hit share may differ from the screen's.

SMILES | MgrA DNA FP | Sa helicase inh
CCOC(=O)N1CCC(NC(=O)c2cc3c(-c4ccccc4F)nn(C)c3s2)CC1 | -0.7 | 18
O=C(CSc1ccccc1Cl)NC1CCCCCC1 | -1.3 | -33
Nc1ccc2oc(-c3ccc(-c4nc5cc(N)ccc5o4)cc3)nc2c1 | x | 8
CCN(CC)CCCNc1cc(C)c2ccc(OC)cc2n1 | x | -80
O=C(NCCN=C1NS(=O)(=O)c2ccccc21)c1ccc(F)cc1 | x | -23
CCOC(=O)c1oc2ccc(S(=O)(=O)Nc3cc4c(cc3C)n(C)c(=O)c(=O)n4C)cc2c1C | x | 9
COc1ccc(Nc2cc3sc4cc(C)ccc4[nH]c3c3c(=O)c4ccccc4c(=O)c23)cc1 | 3.5 | x
COc1ccc(-c2noc(CCC(=O)Nc3ccc4c(c3)OCCO4)n2)cc1 | x | 17
COc1ccc(OCCn2cc(C#N)c3ccccc32)cc1 | 2.1 | 7
CCc1ccc(NC(=O)Cn2cnc3c(cnn3C)c2=O)cc1 | x | -28
CCOc1ccc(NC(=O)CN(C)C(C)c2nnc(-c3cccs3)o2)cc1OCC (stereo not drawn) | x | 17
N#CC1(C#N)C(c2ccccc2Cl)C(C(=O)C2CC2)N2C=CC=CC21 (stereo not drawn) | x | -97
O=C(c1ccccc1O)N1CCN(c2ccccc2)CC1 | -0.3 | 2
Cc1csc(/N=C/N(C)C)n1 | x | -12
Cc1cccc(-c2nnc(SCC3CNC(=O)O3)n2-c2ccc(Cl)cc2)c1 (stereo not drawn) | x | 3
COC(=O)c1sc(N)c(C(=O)OC)c1COC(=O)C1CC(=O)N(Cc2ccco2)C1 (stereo not drawn) | x | -16
CC(C)CC(C)(SCC(=O)O)SCC(=O)O | 0.3 | x
Cn1c(SCc2nc(-c3cccs3)no2)nnc1-c1ccncc1 | 0.1 | 0
N#CCc1ccccc1C(=O)O | x | -46
Cc1nc(-c2ccccc2O)n(S(=O)(=O)N(C)C)n1 | x | 7

Of the compounds above, these have two or more sulfur atoms:
SMILES | MgrA DNA FP | Sa helicase inh
CC(C)CC(C)(SCC(=O)O)SCC(=O)O | 0.3 | x
Cn1c(SCc2nc(-c3cccs3)no2)nnc1-c1ccncc1 | 0.1 | 0

Later entries:
SMILES | MgrA DNA FP | Sa helicase inh
O=C(OCC(=O)N1CCCC1)c1cc(-c2ccco2)nc2ccccc12 | x | 29
O=C1OC(C(=O)NCCc2ccccc2)Cc2ccccc21 (stereo not drawn) | x | 6
CSc1cccc(NC(=O)CN(C)S(=O)(=O)c2ccc3c(c2)CC(C)N3C(C)=O)c1 (stereo not drawn) | -0.1 | 0
Cn1c(=O)cc(OCC(=O)NCCC2=CCCCC2)c2ccccc21 | -1.6 | 9
CC1=C(C(=O)Nc2ccc(C)cc2C)C2(CCN(S(C)(=O)=O)CC2)OC1=O | x | 8
COc1cc(-c2nnc(SCC(=O)c3ccco3)n2C)cc(OC)c1OC | 2.8 | x
CCn1c2ccccc2c2cc(CNCCO)ccc21 | -3.4 | 10
COCCn1c(SCC(N)=O)nc2sc3c(c2c1=O)CCCC3 | x | -4
O=C(OCN1C(=O)c2ccccc2C1=O)c1cccc(OC(F)F)c1 | x | -4
O=C(NC1CCCC1)C(c1ccncc1)N(Cc1cccs1)C(=O)c1csnn1 (stereo not drawn) | -2.5 | 7
CC1C(=O)CCNC1c1ccccc1 (stereo not drawn) | -1.4 | 13
COc1cc(C2NC(C(=O)O)Cc3c2[nH]c2ccccc32)cc(OC)c1OC (stereo not drawn) | 2.0 | x
CCCCn1c(=NC(=O)C(C)(C)C)c(C(=O)OCC)cc2c(=O)n3ccccc3nc21 | 1.8 | 1
CC(C)Cn1cnc2c1c(=O)n(CC(=O)NCC(F)(F)F)c(=O)n2Cc1ccccc1 | x | -15
O=C(Nc1ccccc1)Nc1ccc2nnsc2c1 | 0.7 | x
CN(C(=O)C(C)(C)C)C1CC2C=CC1C2 (stereo not drawn) | 0.1 | x
CCCNC(=O)C1CCC(CNS(=O)(=O)c2cccc3nsnc23)CC1 (stereo not drawn) | 0.8 | -11
O=C1CCC(C(=O)OCc2ccc(Br)cc2)=NN1 | x | 0
CCOc1cc(C)c(Cl)cc1S(=O)(=O)N1CCN(C)CC1 | -1.7 | 11
COC(=O)c1sc2ccccc2c1NC(=O)c1ccc(N2C(=O)CCC2=O)cc1 | x | 10
Cc1c(C)c2c(c(C)c1O)CCC(C)(CCCC(C)CCCC(C)CCCC(C)C)O2 (stereo not drawn) | -0.9 | x
CCc1ccccc1NS(=O)(=O)c1ccc2c(c1)CC(C)N2C(=O)C1CC1 (stereo not drawn) | 2.0 | -1
CC(C)(C)OC(=O)C(C)(C)S(=O)(=O)c1ccccn1 | 0.9 | x
COc1ccc(-n2cnc3cc(C(=O)NCC4CCCO4)ccc32)cc1 (stereo not drawn) | 2.9 | 4
NC(=O)c1cc2cc(Br)cc(Br)c2oc1=O | x | -20
O=C(O)C1C2CCC(C2)C1C(=O)c1ccccc1 (stereo not drawn) | -2.7 | 6
O=C(C1CC(c2ccc(F)cc2)=NO1)N1CCCc2ccccc21 (stereo not drawn) | -2.2 | 7
CC1CCCC(NC(=O)NC(=O)CN2C(=O)C3CC=CCC3C2=O)C1C (stereo not drawn) | x | -7
OC(CN1CCN(C(c2ccccc2)c2ccccc2)CC1)Oc1ccc(Cl)c(Cl)c1 (stereo not drawn) | 2.5 | x
c1ccc(-c2cc3ccsc3s2)cc1 | -0.5 | 14

(list continues)
Results follow in this order: MgrA DNA FP, Sa helicase inh
> Cc1c(-c2ccc(C3C4=C(CC(C)(C)CC4=O)OC4=C3C(=O)CC(C)(C)C4)o2)ccc([N+](=O)[O-])c1C
    1.2, x
> C=CCNCCOc1ccc(Cl)cc1C(C)(C)C
    -3.1, 11
> O=C(c1ccc(F)cc1)c1cn(-c2ccc(F)c(Cl)c2)nn1
    -3.2, x
> CC(=O)OCC1=C(C(=O)O)N2C(=O)[C@@H](NC(=O)Cc3cccs3)[C@H]2SC1
    3.0&1.7, x
> N#Cc1c(NC(=O)COC(=O)c2cccs2)sc2c1CCC2
    -2.5, 1
> N#CCCOCC1CCN(Cc2ccccc2)CC1
    0.7, x
> CC1CCC(NC(=O)CCCn2sc3ccccc3c2=O)CC1 (stereo not drawn)
    x, 15
> CCOC(=O)CSc1nc2ccc(C(F)(F)F)cc2[nH]1
    -0.6, x
> COc1ccc(-c2noc(=O)n2-c2cccnc2)cc1
    -4.2, x
> O=C(CSc1ccccc1)Nc1c(C(=O)C2CC2)oc2ccccc12
    -1.9, -1

Single records, from the list above.
O=C(OCC(=O)N1CCCC1)c1cc(-c2ccco2)nc2ccccc12 as listed: MgrA DNA FP: x; Sa helicase inh: 29
COc1ccc(-c2noc(CCC(=O)Nc3ccc4c(c3)OCCO4)n2)cc1 as listed: MgrA DNA FP: x; Sa helicase inh: 17

Continued.
Results follow in this order: MgrA DNA FP, Sa helicase inh
> CC1CCN(C(=O)COc2ccc(-c3ccccc3)cc2)CC1
    x, 16
> CCOC(=O)c1c(NC(=O)COC(=O)C2CC(=O)N(Cc3ccco3)C2)sc(C(=O)NC)c1C (stereo not drawn)
    x, 18
> Cc1ccc(S(=O)(=O)N2CCN(C(=O)c3ccc(Br)o3)CC2)cc1
    x, -6
> Oc1ccc(C23CC4CC(CC(C4)C2)C3)cc1O
    1.5, 12
> Cc1c(C2=NNC(O)(C(F)(F)F)C2)sc2ccccc12 (stereo not drawn)
    -1.9, x
> CCN(C(=O)c1ccc(OC(C)C)cc1)C1CCS(=O)(=O)C1 (stereo not drawn)
    x, -7
> O=C(CN1C(=O)CCSc2ccccc21)Nc1ccccc1
    x, 18
> N/C(=N\O)c1ccccc1-n1cccc1
    -2.9, x
> c1ccc(-c2cn3c(nc4ccccc43)s2)cc1
    x, -21
> CCNc1nc(NCC)nc(OCCNS(=O)(=O)c2cc(C)ccc2C)n1
    -0.7, x
> Cc1oc2ncn3nc(CCn4c(C)nc5ccccc54)nc3c2c1C
    x, 14
> CCC(=O)c1c(O)cc(O)cc1O
    -1.0, x
> O=C(CSc1c[nH]c2ccccc12)N1CCN(c2ccccc2)CC1
    x, -8
> CCOC(=O)CCc1cc(N=Cc2cc(Cl)cc(Cl)c2O)c(O)c(N=Cc2cc(Cl)cc(Cl)c2O)c1
    1.4, x
> Cc1ccc(OCCn2c(SCC(N)=O)nc3ccccc32)c(C(C)C)c1
    -1.0, x
> O=C(NCc1nc2ccccc2[nH]1)c1ccccc1
    x, 20
> COc1ccc(-c2ccc(CCC(=O)O)[nH]2)cc1
    3.5, 1
> N#CC(C#N)=CNc1cc(C(F)(F)F)cc(C(F)(F)F)c1
    -0.8, x
> Cc1nn(-c2ccccc2)nc1C(=O)O
    3.0, x
> O=C1N=c2ccccc2=C1c1sc(=S)n(NC(=O)c2ccccc2Br)c1O
    0.6, x
> CSc1ncc(C(=O)N2CCOCC2)n1-c1ccccc1
    x, -7
> O=S(=O)(c1cccc(-c2nn(CN3CCc4ccccc4C3)c(=S)o2)c1)N1CCCCC1
    x, 7
> Cc1ccc2scc(N3CCOCC3)c(=O)c2c1
    x, 2
> Cc1ccc(NC(=O)COC(=O)Cc2c(C)noc2C)cc1C
    x, 15
> CCOc1ccc(Br)cc1S(=O)(=O)NC1=NCCCCC1
    x, 1
> O=C(N1CCOCC1)C(F)(F)C(F)(F)C(F)(F)F
    -0.4, 1
> Cc1ccc(S(=O)(=O)N2Cc3ccccc3CC2C(=O)N2CCCCC2)cc1 (stereo not drawn)
    0.5, -1
> Nc1cccc(C(=O)OC2CSC2)c1
    12, 16
> O=C(/C=C/c1ccco1)NCCSc1ncc(-c2ccc(F)cc2)[nH]1
    x, 6
> C=CCOc1ccc2c(=O)cc(C(=O)OCC)oc2c1CCC
    -0.5, x
> CCC(Sc1nc2ncccc2o1)C(=O)N(Cc1ccccc1)C(C)C (stereo not drawn)
    x, 10
> CCCCN1CN(CCc2ccccc2)CC2=C1CC(C)(C)CC2=O
    x, -23
> O=C(NCCc1ccccc1)C1=CC=CN2CCS(=O)(=O)N=C12
    x, -10
> CCC(NC(=O)Oc1ccc2ccccc2c1)(C(F)(F)F)C(F)(F)F
    -0.9, -8
> NC(=O)c1ccc(NC(=O)COC(=O)C2(c3ccccc3F)CCCC2)cc1
    0.3, 6
> N#Cc1c(N)nc2c(c1-c1ccc3c(c1)OCO3)CCc1ccccc1-2
    -1.3, 5
> CC(C)(C)c1ccc(C(=O)Nc2ccc(Oc3cccnc3)nc2)cc1
    -0.8, x
> Cc1ccc(S(=O)(=O)N(c2cccc(Cl)c2)c2nc3ccccc3s2)cc1
    -0.2, x
> Cc1cccc(/C=C2/NC(=O)NC2=O)c1
    x, 35
> O=C(Cc1c(F)cccc1Cl)NCC1CCCO1 (stereo not drawn)
    -2.2, 12
> CCOCC(=O)NCc1ccc2c(c1)cc(C)n2C
    x, 0
> CN1CCN(C(=O)c2cc3c(ccc4ccccc43)oc2=O)CC1
    -0.2, 4
> COc1ccc(-n2nc(C(=O)NCC(=O)Nc3ccc4c(c3)OCO4)c3ccccc3c2=O)c(OC)c1
    x, 12
> O=C(CSC1=NNC(c2ccccn2)S1)c1ccc(Cl)cc1 (stereo not drawn)
    x, -22
> Clc1cc2[nH]cc(-c3nnnn3-c3ccccc3)c2cc1Cl
    -2.5, x
> COc1ccccc1C(=O)C1C(=O)NC23CCN(C)CC2C1c1cc(Cl)ccc1O3 (stereo not drawn)
    x, 4
> O=C(Cn1nnc(-c2ccc(S(=O)(=O)N3CCCC3)cc2)n1)Nc1ccccc1-n1cccc1
    -0.9, -7
> NC(=O)c1cnn2c1NCC=C2c1cccc(C(F)(F)F)c1
    1.4, x
> O=C(Cc1coc2cc(O)ccc12)OCC(=O)c1ccc2[nH]c(=O)[nH]c2c1
    x, -4
> CCCCNC(=O)c1cccc(OC)c1
    -2.9, 17

(cont.)
Results follow in this order: MgrA DNA FP, Sa helicase inh
> Cc1ccc(-c2nc(CSCC(=O)NC3CC3)c(C)o2)cc1
    -0.1, 5
> CCOc1ccc(-c2nc(COC(=O)C(NC(=O)c3ccco3)C(C)C)cs2)cc1OC (stereo not drawn)
    x, 9
> CN(C)S(=O)(=O)c1ccc(S(=O)(=O)N2CCC(c3nc4c(nnn4Cc4cccc(F)c4)c(=O)[nH]3)CC2)cc1
    -4.9, 5
> Cc1nc(C(N)=S)cs1
    -3.2, x
> COc1ccc2nc(NC(=O)C3CCCN(S(=O)(=O)c4ccc5c(c4)oc(=O)n5C)C3)sc2c1 (stereo not drawn)
    x, -11
> N#C/C(=N\O)c1ccccc1Cl
    -0.3, x
> CCOC(=O)N1CCC(N2C(=O)c3ccccc3C2O)CC1 (stereo not drawn)
    -0.9, 8

Compounds from the list above containing a COOH group (7):
Results follow in this order: MgrA DNA FP, Sa helicase inh
> CC(C)CC(C)(SCC(=O)O)SCC(=O)O
    0.3, x
> N#CCc1ccccc1C(=O)O
    x, -46
> COc1cc(C2NC(C(=O)O)Cc3c2[nH]c2ccccc32)cc(OC)c1OC (stereo not drawn)
    2.0, x
> O=C(O)C1C2CCC(C2)C1C(=O)c1ccccc1 (stereo not drawn)
    -2.7, 6
> CC(=O)OCC1=C(C(=O)O)N2C(=O)[C@@H](NC(=O)Cc3cccs3)[C@H]2SC1
    3.0&1.7, x
> COc1ccc(-c2ccc(CCC(=O)O)[nH]2)cc1
    3.5, 1
> Cc1nn(-c2ccccc2)nc1C(=O)O
    3.0, x
